Ecoli rRNA inh: reduced GFP signal of wild-type E. coli, primary screen, bacterial rRNA inhibitor project, GFP/RFP fluorescence, OD600, single point; E. coli WT GFP vs humanized-ribosome RFP mutants, 24 h; stronger effect = lower value; DMSO median 0, no signal -100; 1.6% of 350,000 active; GFP signal change (wild-type ribosome), % (concentration not given with the values); AID 720706, 2013;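 active = significant combined selectivity score with lowered wild-type GFP, culture density cut under 30%, mutant RFP and density less affected; inactive = any of these conditions unmet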; also: one replicate is shown; some compounds called inactive have numbers as strong as hits
MLL AF4-AF9 inh: inhibitors of AF4 peptide binding to AF9, primary screen, biochemical, AlphaScreen, biotin-AF4 peptide, FLAG-AF9, single point | Protein AF-9 (Homo sapiens), P42568 | inhibition, % at 10 µM | AID 651704, 2012 | 0.47% of 350,000 active;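 active = every replicate reaching a set inhibition limit, whatever the replicate mean, cut at about 25% in these data; inconclusive = mean inhibition reaches that limit but some replicates miss it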;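 also: 0% = plate neutral control median and 100% = total signal loss; the record names both 10 and 1 µM as test concentration; the first replicate is given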
Target sequence (P42568 whole entry, looked up): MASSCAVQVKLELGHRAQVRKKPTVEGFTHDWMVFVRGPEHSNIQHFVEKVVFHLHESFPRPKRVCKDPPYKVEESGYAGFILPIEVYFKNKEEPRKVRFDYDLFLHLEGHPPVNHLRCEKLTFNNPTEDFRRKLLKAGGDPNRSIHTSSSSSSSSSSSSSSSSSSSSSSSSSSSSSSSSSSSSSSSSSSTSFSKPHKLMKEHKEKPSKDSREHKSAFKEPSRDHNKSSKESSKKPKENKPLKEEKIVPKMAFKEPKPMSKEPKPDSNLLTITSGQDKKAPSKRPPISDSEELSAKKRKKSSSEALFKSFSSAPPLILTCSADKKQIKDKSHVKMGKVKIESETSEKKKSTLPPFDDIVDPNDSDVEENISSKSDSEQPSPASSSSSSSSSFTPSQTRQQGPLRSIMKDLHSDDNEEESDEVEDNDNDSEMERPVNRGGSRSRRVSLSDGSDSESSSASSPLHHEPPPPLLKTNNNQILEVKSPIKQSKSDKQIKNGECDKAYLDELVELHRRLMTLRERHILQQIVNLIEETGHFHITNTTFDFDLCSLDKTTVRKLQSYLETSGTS
FGF22 binding: binders of human FGF22 protein, primary screen, FGF22 synaptogenesis inhibitor project, biophysical, thermal shift, single point. Fibroblast growth factor 22 (Homo sapiens), Q9HCT0. recombinant FGF22 thermal shift, SYPRO orange fluorescence; percent of sucrose octasulfate shift, DMSO zero. calls only at 9.99 µM. 1.5% of 340,000 active. AID 651658, 2012;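 active = melting point raised past a set limit in the mean and every replicate; inconclusive = no clear call; three in four hits are not shown here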
Target sequence (Q9HCT0 whole entry, looked up): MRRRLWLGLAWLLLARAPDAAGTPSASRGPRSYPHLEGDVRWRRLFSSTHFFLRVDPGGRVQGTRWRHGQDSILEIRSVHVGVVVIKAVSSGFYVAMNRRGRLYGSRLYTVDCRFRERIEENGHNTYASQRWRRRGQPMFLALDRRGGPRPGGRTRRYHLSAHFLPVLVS
ALR H2O2 inh: inhibitors of human ALR sulfhydryl oxidase, primary screen, biochemical, H2O2 detection, HRP-luminol luminescence, single point; FAD-linked sulfhydryl oxidase ALR (Homo sapiens), P55789; purified ALR, DTT oxidation; inhibition, % (concentration not given with the values); 3.8% of 290,000 active;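 active = mean and each replicate at 75% or more; inconclusive = only one of the two met; inactive = neither met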;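 also: stock transfer was 7.5 nL into about 7.5 µL; 0% = neutral wells and 100% = wells with inactivated enzyme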
Target sequence (P55789 whole entry, looked up): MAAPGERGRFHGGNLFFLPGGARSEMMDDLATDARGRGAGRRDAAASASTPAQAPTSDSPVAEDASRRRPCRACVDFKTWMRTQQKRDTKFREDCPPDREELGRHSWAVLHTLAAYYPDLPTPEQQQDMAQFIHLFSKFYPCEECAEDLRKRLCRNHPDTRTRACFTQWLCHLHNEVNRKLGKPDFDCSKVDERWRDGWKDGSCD
Vif A3G: inhibitors of Vif binding to APOBEC3G peptide, primary screen, biochemical, TR-FRET, GST-Vif 1-94, biotin-A3G peptide, dose response retest (AID 1117319); Virion infectivity factor (Human immunodeficiency virus type 1 group M subtype B (isolate …; TR-FRET GST-Vif / biotin-A3G peptide binding; higher % means a stronger effect; test concentration not given here; strong numbers were not always called active; inhibition, %, or IC50 in µM where a hit was titrated; 0.57% of 260,000 active;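 active = above the screen mean plus three standard deviations and confirmed in dose response; inconclusive = results disagree or hit not tested in dose response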;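 also: Vif residues 1-94 fused to GST binding biotinylated APOBEC3G peptide 110-148; 0% = full assay without inhibitor and 100% = GST in place of GST-Vif; retest series ran down from 100 µM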
HNF4A DNA FP: change in binding of human HNF4A to DNA, primary screen, biochemical, fluorescence polarization, FITC-DNA; 1 h; 0.3% of 360,000 active; activity change, % at 10 µM; Hepatocyte nuclear factor 4-alpha (Homo sapiens), P41235; in the data active = activity change above about 30%, passing the limit was not always enough;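 also: controls were the assay level and a saturating level of protein; the project sought stronger binding though the title names inhibitors; some compounds called inactive have numbers as strong as hits; positive values seem to mean higher polarization but the record does not say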
Ecoli growth: E. coli growth inhibition, primary screen, OD600 | Escherichia coli growth, 23 h; stronger effect = lower value | OD600 absorbance (test concentration not listed) | 0.21% of 330,000 active | AID 1053175, 2014;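 active = OD600 absorbance below the run mean of sample wells minus 3.6 SD, in any replicate, cut at about 0.56 in these data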;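 also: stock transfer was 300 nL into about 60 µL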
Ecoli rRNA inh OD600: also measured in Ecoli rRNA inh; calls as there; OD600 change, %; measured here: OD600 growth;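 optical density of the mix in the first replicate; 0 = DMSO median and -100 = no signal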
Ecoli rRNA inh RFP: recorded beside Ecoli rRNA inh, whose call it bears; RFP signal change, %; measured here: RFP humanized mutant strains;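 first replicate; 0 = DMSO median and -100 = no signal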
* marks the source's active call; other numbers are inactive results; i = inactive; ? = inconclusive; . = not tested or not shown.

SMILES	Ecoli rRNA inh	Ecoli rRNA inh OD600	Ecoli rRNA inh RFP	MLL AF4-AF9 inh	FGF22 binding	ALR H2O2 inh	Vif A3G	HNF4A DNA FP	Ecoli growth
O=S1(=O)c2ccccc2C(CCO)N1Cc1ccccc1 (centres undefined)	2	1	1.3	-0.3	i	2	.	-2.7	0.66
CCOC(=O)c1cc(NC(=O)CSc2nnc(CN3CCOCC3)n2C)ccc1Cl	.	.	.	.	.	-13	7%	-0.7	0.68
CCN(C(=O)COC(=O)/C=C/c1ccc(Cl)c(Cl)c1)c1c(N)n(Cc2ccccc2)c(=O)[nH]c1=O	11	10	-1.3	0.7	i	.	.	1.6	0.73
CCOc1ccc(-c2csc(NC(=O)c3cccc(N4C(=O)CCC4=O)c3)n2)cc1	6	3	1.1	?	i	-10	-55%	3.4	0.69
CCOC(=O)C1=C(C)C2C3C(=O)N(c4cc(C)ccc4C)C(=O)C3C1(C)C1C(=O)N(c3cc(C)ccc3C)C(=O)C21 (centres undefined)	.	.	.	.	.	-14	?	2.8	0.71
CCOC(=O)N1CCN(C(=S)Nc2cccc(C)c2C)CC1	.	.	.	.	.	-3	6%	1.6	0.71
COc1ccc(Cc2nc3ccc(C(=O)N4CCOCC4)cc3o2)cc1	13	13	0.5	-1.6	i	0	-2%	1.4	0.73
C=CCNC(=O)c1ccc(CN2CCC(Cc3ccccc3)CC2)cc1	6	7	-0.9	0.8	i	0	.	2.9	0.67
O=C(Cn1c(=O)oc2cc(S(=O)(=O)N3CCCC3)ccc21)N1CCN(C2CCCCC2)CC1	4	12	-0.5	-1.0	i	10	-2%	2.2	0.74
COCCn1cnc2c1c(=O)n(CC(=O)NN)c(=O)n2Cc1ccccc1	4	15	2.2	-0.8	i	1	1%	4.9	0.67
CC(C)(C)n1cnnc1Sc1ncccc1[N+](=O)[O-]	16	4	1.3	3.1	i	-16	0%	-4.4	0.68
O=C(COC(=O)c1ccc[nH]c1=O)NCC1CCCO1 (centres undefined)	.	.	.	.	.	-6	26%	-2.5	0.76
O=C(c1cnc2n(c1=O)CCS2)N1CCN(c2ccc([N+](=O)[O-])cc2)CC1	-5	-4	-4.8	-1.4	i	.	1%	2.4	0.79
COc1cccc(NC(=O)Nc2nccc(C)n2)c1	2	5	0.5	1.4	i	1	-1%	-0.1	0.71
O=C(C1CCN(Cc2cccs2)CC1)N1CCN(Cc2ccc3c(c2)OCO3)CC1	17	8	0.8	-14	.	.	12%	-40	0.74
CCCC(=O)OC[C@H]1CN(C2CCCC2)S(=O)(=O)c2c(Oc3ccc(F)cc3)cccc2O1	8	12	2.2	-2.1	i	.	.	.	.
O=C(CN1C(=O)NC(c2ccccc2)(c2ccccc2)C1=O)NCCc1ccc(F)cc1	-34	-31	-4.5	3.0	i	-3	-7%	1.9	0.72
CCCCc1nc(Cl)c(C#N)c2c1CSC(C)(C)C2	-1	0	-0.6	-3.5	i	-17	.	-1.1	0.65
C[C@H]1CN([C@@H](C)CO)C(=O)c2cc(C#Cc3cccnc3)cnc2O[C@H]1CN(C)Cc1ccccc1	0	2	0.8	-2.8	i	.	.	.	.
COc1cc(CCC(=O)Nc2nnc(C)s2)cc(OC)c1OC	6	6	-1.4	1.6	i	-3	.	3.6	0.71
O=C(C[C@@H]1CC[C@@H]2[C@H](COC[C@@H](O)CN2C(=O)c2ccncc2)O1)Nc1ccc(-c2ccccc2)cc1	0	-4	1.3	0.9	i	.	.	.	.
CCN(CCNC(=O)C1CCN(S(=O)(=O)c2cccc3cccnc23)CC1)c1ccccc1	-3	-6	-2.5	-21	i	?	20%	-1.1	0.75
Cc1cc(C)nc(SCC(=O)Nc2ncc(Cc3cccc(Cl)c3Cl)s2)n1	.	.	.	.	.	2	.	0.9	0.67
CCC(=O)Nc1nc(-c2cc([N+](=O)[O-])cs2)cs1	5	1	5.6	0.6	i	.	.	0.2	0.71
O=C(CC1N=C2c3ccccc3N=C(SCc3ccc(F)cc3)N2C1=O)NCc1ccco1 (centres undefined)	.	.	.	.	.	1	16%	-3.1	0.72
CCCN(C)C1CN(Cc2cn(Cc3cccc(Cl)c3)nn2)S(=O)(=O)C1 (centres undefined)	15	10	2.7	-0.3	i	.	.	-0.9	.
Cc1cc(C(=O)N2CCCC(CCC(=O)N3CCN(c4ccccn4)CC3)C2)c(C)o1 (centres undefined)	10	5	-0.6	0.4	.	9	7%	0.6	0.69
Cc1cc(NS(=O)(=O)c2ccc(NC(=O)c3cc(-c4cccnc4)nc4ccc(Cl)cc34)cc2)no1	.	.	.	.	.	-1	-4%	2.4	0.74
CCNC(=O)[C@H]1[C@H](CO)[C@H]2Cn3c(ccc(-c4ccc(F)cc4)c3=O)[C@H]2N1Cc1cc(F)ccc1F	1	-6	3.8	-2.3	i	.	.	.	.
COc1ccc(S(=O)(=O)N(C)C[C@H]2Oc3c(NC(=O)c4ccncc4)cccc3C(=O)N([C@@H](C)CO)C[C@H]2C)cc1	-6	-1	-3.3	-3.4	i	.	.	.	.
O=C(C[C@@H]1C[C@@H]2c3cc(NC(=O)Nc4ccccc4)ccc3O[C@@H]2[C@H](CO)O1)NC1CCCC1	-4	8	8.8	-4.1	i	.	.	.	.
O=C(NCc1ccc(N2CCCC2=O)cc1)c1ccc(F)cc1	-1	8	-3.2	-2.8	i	-4	15%	-0.3	0.7
C(=C\c1ccccc1)/CN1CCN(C(c2cc3ccccc3o2)c2nnnn2C2CCCC2)CC1 (centres undefined)	-1	-13	5.7	5.0	i	.	.	-1.9	.
O=C(c1cc(-c2ccncc2)nc2ccccc12)N1CCN(c2ccccn2)CC1	.	.	.	.	.	-3	-6%	0.1	0.63
Cn1cccc1CNC(=O)Nc1ccc(Cl)c(Cl)c1	.	.	.	.	.	-2	-2%	4.8	0.62
N#CC(C(=O)c1ccccc1)=C1SCCS1	-6	-6	0.0	.	i	-4	-5%	3.9	0.66
Cc1c(Cl)cccc1N=C(N)N=C(N)N	9	8	3.6	0.1	i	-7	-6%	-0.3	0.72
CCS(=O)(=O)Nc1ccc(C2=NN(S(=O)(=O)CC)C(c3cccs3)C2)cc1 (centres undefined)	0	-3	1.7	3.6	i	-7	-5%	15	0.7
O=C(CCN1C(=O)/C(=C/c2ccc(F)cc2)SC1=S)NCCc1ccc(O)cc1	0	14	0.0	-1.3	i	1	.	2.0	0.66
O=C(c1ccc(N2CCCCC2)c([N+](=O)[O-])c1)N1CCN(c2ccccn2)CC1	-21*	-8.8*	-8.0*	0.4	i	-3	.	0.5	0.63
Cc1ccc2nc(SC(C)C(=O)NCc3ccc4c(c3)OCO4)[nH]c2c1 (centres undefined)	-3	-1	0.7	-5.5	i	-1	15%	-4.5	0.69
O=Cc1cc2cc3c(cc2nc1Cl)OCCO3	.	.	.	.	.	-16	-13%	.	0.63
COCC#Cc1ccc2c(c1)O[C@H](CN(C)C)[C@@H](C)CN([C@@H](C)CO)S2(=O)=O	3	2	-1.9	1.4	i	.	.	.	.
CC(C)(C)C(=O)NC1CC2CCCC(C1)N2C(=O)Nc1ccccc1F (centres undefined)	18	17	2.3	-3.2	i	-9	1%	3.5	0.64
O=C(/C=C/c1ccc(F)cc1)NCc1cccs1	.	.	.	.	.	-56	.	3.2	0.65
CC(C)Cn1c(CCNC(=O)c2ccco2)nc2ccccc21	.	.	.	2.7	i	-6	5%	2.2	0.7
C/C=C/c1ccc(OCCOc2ccc(C=O)cc2)c(OC)c1	-8	-22	-4.7	-35	i	-38	-1%	-3.1	0.68
CC(C)c1ccc(C(C)NCCS(=O)(=O)c2ccc(Cl)cc2)cc1 (centres undefined)	-52	-79	-16	-1.7	i	0	.	4.0	.
Nc1nnnn1/N=C/c1cc(Cl)ccc1O	4	19	-9.1	-11	i	-1	.	-10	.
CO[C@H]1CN(C)C(=O)c2ccc(NC(=O)NC(C)C)cc2OC[C@@H](C)N(C(=O)NC(C)C)C[C@@H]1C	2	-3	-1.0	-1.0	i	.	.	.	.
CCSc1nsc(NC(=O)Nc2ccc(F)cc2F)n1	.	.	.	.	.	-1	.	3.9	0.57
CCN(C(=O)/C=C/c1ccc(OC)cc1)C1CCS(=O)(=O)C1 (centres undefined)	3	2	-1.7	-22	i	-5	-7%	0.2	0.7
O=C(COC(=O)c1ccc(F)cc1)NCC1CCCCC1	3	1	0.1	1.4	i	2	.	-3.1	0.69
NC(=O)c1ccccc1NC(=O)CSc1nc2ccccc2c(=O)[nH]1	-5	6	-3.8	-11	i	3	.	0.5	0.71
O=C(c1ccc2[nH]c(=O)c(=O)[nH]c2c1)N1CCc2ccccc21	0	0	0.1	0.7	i	-19	-4%	-0.1	0.71
CC12CCC(C(=O)Nc3c(Cl)cccc3Cl)(C(Br)C1=O)C2(C)C (centres undefined)	13	1	-1.2	0.4	i	-18	-8%	-0.4	0.7
CCCCC(=O)Nc1cc(OC)c(NC(=O)C2CCCCC2)cc1OC	.	.	.	.	.	-17	11%	0.0	0.76
CSCC[C@H](N)C(=O)N1CCC(C(=O)N[C@@H](Cc2c[nH]c3ccccc23)C(=O)O)CC1	12	20	0.0	2.9	i	21	0%	3.0	0.68
CCc1ccc2[nH]c(=O)c(C3C(C#N)=C(N)Oc4c3ccc3cccnc43)cc2c1 (centres undefined)	.	.	.	.	.	-9	?	-0.3	0.67
C[C@@H]1CN([C@H](C)CO)C(=O)c2cc(N(C)C)ccc2O[C@@H](C)CCCCO[C@@H]1CN(C)C(=O)Nc1ccc(C(F)(F)F)cc1	-2	-5	-0.3	13	i	.	.	.	.

Quoted from above, three compounds:
SMILES	Ecoli rRNA inh	Ecoli rRNA inh OD600	Ecoli rRNA inh RFP	MLL AF4-AF9 inh	FGF22 binding	ALR H2O2 inh	Vif A3G	HNF4A DNA FP	Ecoli growth
CSCC[C@H](N)C(=O)N1CCC(C(=O)N[C@@H](Cc2c[nH]c3ccccc23)C(=O)O)CC1	12	20	0.0	2.9	i	21	0%	3.0	0.68
CCc1ccc2[nH]c(=O)c(C3C(C#N)=C(N)Oc4c3ccc3cccnc43)cc2c1 (centres undefined)	.	.	.	.	.	-9	?	-0.3	0.67
C[C@@H]1CN([C@H](C)CO)C(=O)c2cc(N(C)C)ccc2O[C@@H](C)CCCCO[C@@H]1CN(C)C(=O)Nc1ccc(C(F)(F)F)cc1	-2	-5	-0.3	13	i	.	.	.	.

Other results.
SMILES	Ecoli rRNA inh	Ecoli rRNA inh OD600	Ecoli rRNA inh RFP	MLL AF4-AF9 inh	FGF22 binding	ALR H2O2 inh	Vif A3G	HNF4A DNA FP	Ecoli growth
O=C(Cc1n[nH]c(=O)c2ccccc12)N1CCN(c2ccc(F)cc2)CC1	4	0	0.0	3.2	i	43	.	1.4	0.72
CNc1nc(-c2ccc3c(c2)CCN3C(=O)c2ccccc2C)cs1	5	-3	5.4	6.3	i	2	-5%	4.0	0.66
C[C@H](NC(=O)c1ccco1)C(=O)NNC(=O)COc1cccc(C(F)(F)F)c1	1	3	0.9	-0.8	i	1	.	-2.6	0.69
Cc1ccc(N2CC(C(=O)NC(C)CCc3ccccc3)CC2=O)cc1 (centres undefined)	1	3	-0.1	-0.7	i	1	.	0.4	0.73

These rows are one share of the data (hit frequency here may not be typical).
